# From PubChem
# PABP polyA inh – PABP-poly(A) binding inhibition. P11940. PABP-poly(A) RNA binding, fluorescence polarization. inhibition, % at 35 µM. 290,000 compounds, 1% hits. AID 2014;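 active = 50% or more with normal probe brightness, or confirmed in later tests; inconclusive = above 50% with abnormal brightness, or retests that disagree; inactive = below 50% or failed in later tests; about a fifth of its hits are not listed in these tables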;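 also: calls also rest on retests at 20 µM and on dose response follow-up; controls were probe without protein and protein plus probe with vehicle; some compounds called inactive have numbers as strong as hits; many hits fall short of the cut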
# Target sequence (P11940 whole entry, looked up): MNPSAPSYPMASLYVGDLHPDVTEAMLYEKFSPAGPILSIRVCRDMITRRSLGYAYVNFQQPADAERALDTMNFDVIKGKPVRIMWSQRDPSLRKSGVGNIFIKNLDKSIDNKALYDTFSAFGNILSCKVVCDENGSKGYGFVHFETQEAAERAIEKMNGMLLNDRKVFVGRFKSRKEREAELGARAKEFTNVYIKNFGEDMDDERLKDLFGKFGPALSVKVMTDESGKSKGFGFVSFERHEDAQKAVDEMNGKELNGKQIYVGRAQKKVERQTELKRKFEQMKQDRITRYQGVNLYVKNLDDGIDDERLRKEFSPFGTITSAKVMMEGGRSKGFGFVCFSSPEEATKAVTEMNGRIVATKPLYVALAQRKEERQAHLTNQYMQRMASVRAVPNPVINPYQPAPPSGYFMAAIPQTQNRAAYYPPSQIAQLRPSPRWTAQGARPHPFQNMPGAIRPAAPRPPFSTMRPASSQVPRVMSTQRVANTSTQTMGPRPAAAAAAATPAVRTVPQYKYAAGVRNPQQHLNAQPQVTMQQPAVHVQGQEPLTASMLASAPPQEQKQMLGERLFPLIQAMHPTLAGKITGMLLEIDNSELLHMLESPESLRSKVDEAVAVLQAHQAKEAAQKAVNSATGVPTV
# eIF4H FP inh – inhibitors of RNA binding by human eIF4H; Q15056; eIF4H fluorescence polarization binding assay; inhibition, % at 35 µM; 290,000 compounds, 0.94% hits; AID 2012;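 active = 50% or more with normal probe brightness, or confirmed in later tests; inconclusive = above 50% with abnormal brightness, or retests that disagree; inactive = below 50% or failed in later tests; about a fifth of its hits are not listed in these tables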;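 also: calls also rest on retests at 20 µM and on dose response follow-up; 0% = protein and probe with vehicle and 100% = probe without protein; strong numbers were not always called active; many hits fall short of the cut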
# UUG fidelity – yeast start codon fidelity modulation; S. cerevisiae UUG-firefly luciferase reporter, luminescence/redox ratio; activity score, % at 18.7 µM; 350,000 compounds, 0.13% hits; AID 602363;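 active = replicate mean at a twofold rise or more, about +100% in these data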;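 also: firefly luciferase made from a UUG start codon reports start codon fidelity; reporter light over untreated wells divided by growth signal over untreated wells; some hits fall short of that in this replicate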
# Rce1 inh – inhibitors of yeast Ras-converting enzyme. calls only. Q03530. 290,000 compounds, 0.27% hits. yeast membranes, quenched prenylated peptide cleavage fluorescence. AID 2563;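 active = fall in fluorescence gain of 50% or more versus controls, with final raw signal at or below 3038400; inconclusive = same 50% fall but final raw signal above 3038400; inactive = fall in fluorescence gain under 50%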;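 also: plate controls were neutral control wells for no effect and wells lacking membranes for full effect; tested at 10 µM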
# Env fusion inh – HIV envelope-mediated fusion inhibition | HeLa-JRFL Env/CEM21 cell fusion, luciferase | inhibition, % at 12.3 µM | 360,000 compounds, 1.1% hits | AID 651610;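 active = mean replicate inhibition score of at least 50 and every replicate individually at or above 50; inconclusive = only one of the two criteria met; inactive = mean below 50 and not all replicates reaching 50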;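 also: 0% = plate neutral controls and 100% = maraviroc near 300 nM; one replicate is shown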
# CSC inhib – blocks cancer stem cells. cancer stem cell-like cells viability, luminescence. inhibition, % at 7.5 µM. 300,000 compounds, 1.1% hits. AID 2717;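 active = mean at 75% or more and at least half the replicates too; inconclusive = mean and replicates disagree; tested in HMLE shEcad cells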;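 also: 0% = median of negative and 100% = median of positive control wells; the first replicate is given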
# MT1-MMP act inh – blocks activation of human MT1-MMP | AID 651647 | 360,000 compounds, 0.061% hits | GFP/RFP ratio change, % at 20 µM | HT1080 RFP-PRO-GFP cells, GFP/RFP ratio fluorescence, overnight; percent of plate control window, DMSO zero | P50281;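 active = GFP/RFP ratio change of at least 30% with cell ATP level not reduced by more than half and red fluorescence within 50% of control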; also: strong numbers were not always called active
#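 Material: RFP-PRO-GFP reporter HT1080 cells. Dosing: single-point 20 µM compound, 1% DMSO. Controls: DMSO and RFP-L50D-GFP cell wells. Timing: cells overnight before dosing, compound overnight, 37 °C, 5% CO2. Measure: GFP/RFP fluorescence ratio.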
# eIF4H FP inh retest – second read-out of eIF4H FP inh, no call of its own (marks repeat the call); inhibition, %; compound at 20 µM; confirmation average;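 mean of two retest wells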
# PABP polyA inh retest – also measured in PABP polyA inh; calls as there; inhibition, %; compound at 20 µM; confirmation repeats;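 mean of two retest wells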
# MT1-MMP act inh RFP – second read-out of MT1-MMP act inh, no call of its own (marks repeat the call); RFP signal change, %; measured here: RFP expression control read;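 0 = vehicle wells; hits needed this value within 50% of zero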
# An asterisk follows results filed as active; i = inactive; u = inconclusive; x = no result given.
SMILES,PABP polyA inh,eIF4H FP inh,UUG fidelity,Rce1 inh,Env fusion inh,CSC inhib,MT1-MMP act inh,MT1-MMP act inh RFP,others
Cc1ccc(NC(=O)c2ccc(OCC3CCCO3)cc2)cc1Cl (stereo not drawn),x,x,-16,x,70*,x,-4,-27,
CC1CCN(C2=NC(=O)/C(=C/c3cn[nH]c3-c3ccccc3)S2)CC1,10,-3,x,i,x,33,4,0,
CCOCCOc1cccc(C(=O)NC(c2ccccc2)C(C)C)c1 (stereo not drawn),-12,-3,x,i,-1,2,7,-1,
CCN(C(=O)Cn1c([N+](=O)[O-])cnc1C)c1ccccc1,2,2,-7,i,5,-7,0,5,
CC(=O)c1ccc(NC(=O)CN(c2c(C)cccc2C)S(C)(=O)=O)cc1,0,0,10,i,-34,-11,-7,-1,
Cc1ccc(S(=O)(=O)/N=C2/NC(=O)/C(=C/c3ccc(Br)o3)S2)cc1,-15,91,x,i,9,x,-4,7,eIF4H FP inh retest=-8;PABP polyA inh retest=12
Cc1ccc(C(=O)Nc2c(C#N)c(C)c(C)n2Cc2ccccc2)cc1,-2,-12,-3,i,x,6,-4,-9,
C=CCn1c(C)cc(C(=O)COc2ccc(C)nc2[N+](=O)[O-])c1C,0,u,-2,i,20,1,3,-9,
O=C(CSc1nccn1Cc1ccco1)Nc1ccccc1F,-1,1,8,i,7,-6,-2,-1,
Cc1cc(N/N=C/c2ccncc2)nc2ccccc12,-14,4,x,i,-40,x,2,-5,
Cc1ccc(Cn2c(N3CCNCC3)nc3c2c(=O)[nH]c(=O)n3C)cc1,-4,0,-6,i,17,0,-8,-3,
CC[C@@]1(C(=O)OC)N[C@H](CN(C)C(=O)NC(C)C)[C@@H]2C(=O)N(C)C(=O)[C@@H]21,x,x,-17,x,-30,x,4,7,
CC(=O)NC(c1ccccc1)c1nc(-c2ccccc2C)cs1 (stereo not drawn),x,x,-5,x,-39,x,1,3,
Cc1nc(SCc2cccc(C(=O)O)c2)nc2c1CCCC2,-4,0,x,i,44,2,-1,-2,
C=CCNC(=S)NNC(=O)c1cccc2ccccc12,14,4,-20,i,-60,-1,2,8,
O=C(O)CCCC(=O)NNc1ncnc2ccccc12,-9,-3,x,i,-15,13,2,6,
COc1cc(CCC(=O)OCC(=O)Nc2ccccc2C#N)cc(OC)c1OC,-3,-11,x,i,10,17,x,x,
Cc1cccc(C)c1NC(=O)CN1C(=O)C2CC=CCC2C1=O (stereo not drawn),x,x,-18,x,4,x,-3,2,
COC(=O)c1cc(S(=O)(=O)Nc2cc(S(=O)(=O)N(C)C)ccc2C)oc1C,-1,-12,x,i,7,-4,1,1,
Cc1ccc(-n2c(SCC(=O)NCCC3=CCCCC3)nc3n[nH]c(C)c3c2=N)cc1Cl,-18,-18,-8,i,11,13,7,-8,
CCOC(=O)c1c(NC(=S)Nc2ccc(OCC)cc2)sc2c1CCN(C)C2,-20,0,-22,i,0,-2,-4,-4,
O=C(NC1CCCCC1)N1CCC(c2nc3ccccc3[nH]2)CC1,14,23,x,i,x,-11,1,0,
CC1(C)Cc2c(sc3ncnc(NNC(=S)NCc4ccccc4)c23)CO1,-11,5,x,i,-6,44,9,-6,
Cn1cc(Cl)c(C(=O)N(Cc2ccccc2)c2ccccn2)n1,6,0,9,i,7,-13,1,3,
Cc1ccc(C(=O)Cn2nc(C(=O)O)c3ccccc3c2=O)cc1C,8,7,x,i,-3,-1,7,1,
O=C(NN(C(=O)c1ccccc1)c1ccccc1)c1ccccc1,-1,-1,-20,i,7,-1,1,2,
Cc1cccnc1NC(=O)Cn1c(=O)oc2ccccc21,2,5,-7,i,18,2,0,3,
CC(C)[C@H](NC(=O)NCc1ccco1)C(=O)O,7,-2,3,i,x,x,1,2,
O=C1C2C3C=CC(C3)C2C(=O)N1c1ccc(-c2nc3ccccc3c(=O)o2)cc1 (stereo not drawn),8,-10,x,i,9,1,4,7,
O=C(CN1CCOCC1)Nc1ccc(S(=O)(=O)N2CCCCCC2)cc1,11,-5,-10,i,-15,17,0,4,
Cc1ccccc1-c1nnc(SCC(=O)N(CC(C)C)c2c(N)n(CC(C)C)c(=O)[nH]c2=O)n1C,-1,-6,x,i,-9,7,-1,0,
CC(=O)Nc1ccc(-c2ccc3nnc(C)n3n2)cc1,-7,-9,-15,i,-17,-24,12,5,
C#CCOCCOCCOCCNc1nc(N2CCOCC2)nc(N2CCN(C(=O)[C@H](CCCCN)n3cc([C@@H](N)CO)nn3)CC2)n1,38,27,54,i,-5,9,-2,4,
CC(=O)Nc1ccc(C(=O)CN2CCN(c3ccccc3)CC2)cc1,38,33,15,x,8,-5,0,2,
CCOC(=O)C1=C(COC(=O)c2cc(OC)c(OC)cc2[N+](=O)[O-])NC(=O)NC1C (stereo not drawn),x,x,8,i,-13,-10,6,11,
COc1cccc(CNC2CCCC2)c1,-3,6,-13,i,x,-9,2,-2,
O=C(Cn1ccc([N+](=O)[O-])n1)N1CCCCC1,-7,3,x,i,11,-8,-2,0,
Cc1cc2nc(CCN(C(=S)NCC(C)C)C3CCCC3)[nH]c2cc1C,-10,-13,-20,i,x,19,1,-7,
O=C(COC(=O)/C=C/c1cccc(Cl)c1)Nc1cccc(S(=O)(=O)NC2=NCCC2)c1,x,x,-2,x,-1,x,3,0,
CC(=O)NC1(C(F)(F)F)NC(=O)N(C2CCCCC2)C1=O (stereo not drawn),5,-3,-9,i,-90,-2,-2,5,
CC1(C(=O)NS(=O)(=O)c2ccccc2Cl)CCN1C(=O)C1(c2ccccc2)CCCC1 (stereo not drawn),x,x,-9,x,-1,x,-1,3,
CC(NC(=O)CN1C(=O)c2ccccc2C1=O)c1ccccc1 (stereo not drawn),11,-11,-22,i,-2,-4,-3,-2,
Cc1ccc(S(=O)(=O)N(C)C)cc1NC(=O)C(C)OC(=O)C1CCCCC1 (stereo not drawn),x,x,-11,x,8,2,2,0,
O=c1c(Cl)c(NCc2ccco2)cnn1C12CC3CC(CC(C3)C1)C2,16,-4,-4,i,10,-2,-2,-2,
Cn1c(/C(C#N)=C/c2ccc(-c3ccc(S(N)(=O)=O)cc3)o2)nc2ccccc21,8,u,-12,x,-21,27,-161,8,
CCn1cc(C(=O)O)c(=O)c2cc(F)c(N3CCN(S(=O)(=O)c4ccc(NC(=O)OC)cc4)CC3)cc21,-19,13,3,i,5,-2,-11,-15,
CCCn1c(=S)[nH]c2cc(C(=O)N3CCN(C(=O)OCC)CC3)ccc2c1=O,-6,-16,-18,i,-3,17,x,x,
CCC1CCCCN1C(=O)c1ccc(OC)c(OC2CCN(C(C)=O)CC2)c1 (stereo not drawn),0,10,4,i,-12,x,-1,-1,
CCc1cc2c(cc3c(=O)n(CC(=O)N4CCN(C)CC4)ncn32)s1,0,12,-20,i,-4,-15,2,4,
Cc1ccc(NC(=O)CSCC(N)=O)cc1C,-2,4,2,i,-23,-4,-1,1,
N#Cc1ccc(Oc2ccc(C#N)c(C#N)c2)cc1C#N,x,x,-20,x,2,x,3,3,
Cc1ccc(NC(=S)NC(=O)C2CC2)c(C)c1,-2,-15,-20,x,-27,-6,0,1,
Cc1ccc(S(=O)(=O)CCC(=O)Nc2cc(C)on2)cc1,x,x,-19,x,u,x,2,5,
O=C(COc1ccc(Cl)cc1)Nc1ccc2c(c1)CCC2,-5,1,x,i,-20,36,4,4,
O=C(CN1C(=O)c2ccc([N+](=O)[O-])cc2C1=O)NC1CCCCCC1,x,x,x,i,u,-12,3,3,
CSc1sccc1/C=C(/C#N)C(=O)c1ccco1,11,57,-20,i,-5,-5,-3,7,eIF4H FP inh retest=24;PABP polyA inh retest=18
COc1cccc2cc(CC(=O)c3cc(C)ccc3C)c(=O)oc12,-4,0,6,i,-3,-16,0,-1,
Cc1cc(C)n(CC(O)COc2ccccc2)n1 (stereo not drawn),-4,-4,-8,i,-70,-9,-1,5,
O=C(CNC(=O)c1ccc(Br)o1)NNC(=O)c1ccccc1F,26,26,-19,i,5,-9,-3,1,
CCCc1cc(=O)oc2cc(C)cc(O)c12,-9,-2,-14,i,-66,-1,1,-5,
# The listing continues.
SMILES,PABP polyA inh,eIF4H FP inh,UUG fidelity,Rce1 inh,Env fusion inh,CSC inhib,MT1-MMP act inh,MT1-MMP act inh RFP,others
Cc1cc(/C=N/NC(=O)Cn2c3ccccc3c(=O)c3ccccc32)c(C)n1-c1ccc(Cl)cc1,-11,13,x,x,-5,x,1,1,
CN(CCO)c1cc(N2CCCCC2)c2nonc2c1[N+](=O)[O-],-1,-12,-1,i,13,-11,11,7,
O=C(COC(=O)CCC(=O)c1ccc(Cl)cc1)NC1CC1,-3,8,x,i,2,-2,6,4,
O=[N+]([O-])c1cc([N+](=O)[O-])c2cccnc2c1Oc1ccccc1O,-1,23,-20,i,17,20,9,-3,
C#CCOCCOCCOCCNc1nc(N2CCN(C(=O)CCCCCCCCCCNC(=O)[C@H]([C@@H](C)CC)n3cc(CCCCCN)nn3)CC2)nc(N2CCN(C(=O)CCCCCCCCCCNC(=O)[C@H](CO)n3cc(CCCCCN)nn3)CC2)n1,x,x,9,x,x,3,6,1,
CCC(Sc1ncccc1C(=O)OC(C)C)C(=O)NCc1ccco1 (stereo not drawn),-6,4,-13,i,-55,-16,-2,-3,
O=C(Cc1cccc(NC(=O)C2CCCN(C(=O)C3CCCCC3)C2)c1)Nc1cccc(C(=O)N2CCCCC2)c1 (stereo not drawn),x,x,-2,x,-112,x,1,0,
CN(C)c1nc(N)ncc1-c1ccc(Oc2ccccc2)cc1,7,2,7,i,23,-8,3,-5,
O=C(NCCNCc1ccccc1)c1ccco1,x,x,-13,x,-18,x,5,-5,
C=CCNC(=O)CC(=O)N/N=C/c1cccs1,-4,-10,x,i,9,3,-3,4,
CC1CCCCC1NC(=O)COC(=O)C12CC3CC(CC(Cl)(C3)C1)C2 (stereo not drawn),7,-16,x,i,6,-8,-2,-1,
Cc1ccc(-c2nc(N)sc2CC(=O)OCC(=O)NC2CCCC(C)C2C)cc1 (stereo not drawn),-1,-5,-6,i,-6,3,-2,2,
COc1ccccc1CN(Cc1cc2cc(C)ccc2[nH]c1=O)Cc1nnnn1Cc1ccco1,26,27,-3,i,x,32,-18,-6,
CC1CCCCN1C(=O)CSc1nnc(-c2ccc(Cl)s2)o1 (stereo not drawn),-6,-9,-13,x,x,-13,7,2,
S=C(NCCSCc1ccc(Cl)c(Cl)c1)Nc1ccccc1,x,x,-33,i,x,-14,-6,-3,
O=C(C=Cc1ccccc1)c1cc(Br)ccc1O,x,x,-8,x,-3,x,4,-3,
O=C(NC(=S)N1CCN(C/C=C/c2ccccc2)CC1)c1ccco1,-7,0,x,i,-6,-8,5,2,
OC[C@@H]1CN(Cc2ccc3c(c2)OCO3)C[C@H](n2cnc3c(NC4CCCC4)ncnc32)O1,x,x,-5,x,-2,x,6,0,
C=CCN(CC(=O)NCc1ccc(F)cc1)C(=O)c1csnn1,14,5,2,i,-39,-6,-33,-45,
Cn1cnc(C(=O)N2CCN(c3ccccc3)CC2)c1C(=O)N1CCN(c2ccccc2)CC1,x,x,-3,x,29,16,2,1,

# These rows are one share of the data; rates above refer to the full screens.
